DUX4 txn inh: inhibitors of DUX4-driven ZSCAN4 reporter expression, primary screen, 293T cells, Gaussia and Italica luciferase; 293T-iDUX4 ZSCAN4-Gaussia luciferase reporter, 24 h; active compounds read low; activity change, negative = inhibition, % (no concentration beside the values); actives 0.8% (n = 37,000); AID 1224904, 2016;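 active = -10% or lower and over 25 points stronger than a control reporter; inconclusive = -10% or lower with a smaller gap; inactive = above -10%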;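 note: 0% = median of neutral control wells and -100% = median of positive control wells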
DUX4 txn inh difference: further read-out of DUX4 txn inh, marked with its call; Gaussia minus Italica difference, %; measured here: selective DUX4 reporter inhibition;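 worked out from the two reporters; negative = selective loss of the DUX4 reporter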
DUX4 txn inh control: also measured in DUX4 txn inh; calls as there; activity change, negative = inhibition, %; measured here: Italica tet-on control reporter;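 0 = neutral control and -100 = positive control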
* hit, by the source's call; u = inconclusive; x = not tested or not shown. Some of the compounds tested (hit frequency here may not be typical).

Structure	DUX4 txn inh	DUX4 txn inh difference	DUX4 txn inh control
CCC(=O)N1[C@H](CO)[C@H]2c3ccccc3N(S(=O)(=O)c3ccccc3C)C[C@H]21	0.5	0.7	-0.2
CN1c2ccc(-c3cccc(F)c3)cc2[C@H]2[C@H](CCN2C(=O)Cc2cccnc2)[C@H]1CO	14.4	9.8	4.6
COc1ccccc1C#Cc1ccc([C@H]2[C@@H](CO)N(C(=O)C3CC3)[C@H]2C#N)cc1	3.9	0.3	3.6
CN1C(=O)c2cc(NS(=O)(=O)c3cccc(F)c3)ccc2OC[C@@H]2O[C@H](CC(=O)NCCN3CCCCC3)CC[C@H]21	-0.5	-4.5	4.0
CC=Cc1ccc2n(c1=O)C[C@H]1[C@H](CO)[C@@H](C(=O)NCCC)[C@@H]2N1CC1CC1 (mixture of isomers)	10.1	7.9	2.2
COc1ccccc1NC(=O)N(C)C[C@H]1OCc2ccccc2-c2ccccc2C(=O)N([C@@H](C)CO)C[C@H]1C	14.6	21.3	-6.8
COCCN(C[C@@H]1[C@H](c2ccccc2)[C@@H](CO)N1C(C)=O)C(=O)c1ccncc1	9.6	3.1	6.5
CCCNC(=O)[C@@H]1[C@@H](CO)[C@@H]2Cn3c(ccc(-c4cncnc4)c3=O)[C@H]1N2C(=O)Nc1ccccc1	-0.7	-1.2	0.5
CO[C@H]1CN(C)C(=O)c2cccc(C#N)c2OC[C@@H]2O[C@H](CC[C@H]2OC)CCN(C)C(=O)[C@@H]1C	4.5	-0.7	5.3
O=C(c1ccccc1F)N1C[C@@H]2[C@H](c3ccccc31)[C@H](CO)N2C(=O)c1cccnc1	0.3	2.2	-2.0
O=C(Nc1cccc(F)c1)N1C[C@@H]2[C@H](c3ccccc31)[C@H](CO)N2C(=O)Cc1ccccn1	0.0	-3.0	2.9
CCC(=O)N1CC2(C1)[C@@H](c1ccccc1)[C@@H](CO)N2Cc1ccccc1F	5.5	12.9	-7.4
O=C(C[C@@H]1C[C@@H]2c3cc(NC(=O)CC4CC4)ccc3O[C@@H]2[C@H](CO)O1)NCc1cc(F)ccc1F	6.6	1.6	5.0
CCCNC(=O)N[C@H]1CC[C@@H](CC(=O)N2CCN(C)CC2)O[C@H]1CO	1.4	-5.1	6.5
O=C(Nc1ccc(F)cc1)Nc1ccc2c(c1)[C@H]1C[C@@H](CC(=O)N3CCOCC3)O[C@@H](CO)[C@H]1O2	6.0	8.1	-2.1
O=C(C[C@H]1C=C[C@H](NC(=O)Nc2ccccc2F)[C@@H](CO)O1)NCc1ccc(-c2ccccc2)cc1	15.3	37.4	-22.0
C[C@@H]1CN([C@H](C)CO)C(=O)CCCn2nncc2CO[C@@H]1CN(C)Cc1ccccc1C(=O)O	2.5	5.7	-3.2
CCC(=O)Nc1ccc2c(c1)C(=O)N(C)C[C@@H](OC)[C@@H](C)CN(C(=O)Cc1cccnc1)[C@@H](C)CO2	6.2	5.5	0.7
C[C@H]1CN([C@@H](C)CO)S(=O)(=O)c2ccc(C#Cc3ccccc3)cc2O[C@H]1CN(C)C	2.5	-0.7	3.1
C[C@@H]1CN([C@@H](C)CO)C(=O)c2cc(NC(=O)NC3CCCCC3)ccc2O[C@@H]1CN(C)Cc1ccncc1	-1.8	1.0	-2.8
CCCNC(=O)[C@@H]1[C@@H](CO)[C@@H]2Cn3c(ccc(-c4ccccc4OC)c3=O)[C@@H]2N1CC	-6.4	-8.2	1.8
COCCNC(=O)C[C@H]1CC[C@@H]2[C@H](COc3ccc(NC(=O)Nc4cccc(F)c4)cc3C(=O)N2C)O1	-5.2	-1.4	-3.8
C[C@@H]1CCCCO[C@@H](CN(C)S(=O)(=O)c2cn(C)cn2)[C@@H](C)CN([C@@H](C)CO)C(=O)c2cc(NC(=O)Nc3cccc4ccccc34)ccc2O1	1.5	0.3	1.2
CCCC(=O)N1CC2(C1)CN(Cc1nccs1)[C@@H](CO)c1[nH]c3cc(OC)ccc3c12	11.8	9.7	2.1
COc1ccc(S(=O)(=O)N(C)C[C@@H]2OCc3cnnn3CCCC(=O)N([C@@H](C)CO)C[C@H]2C)cc1	-4.2	-3.7	-0.5

4 entries from above, sorted by SMILES length, smallest number first:
Structure	DUX4 txn inh	DUX4 txn inh difference	DUX4 txn inh control
C[C@H]1CN([C@@H](C)CO)S(=O)(=O)c2ccc(C#Cc3ccccc3)cc2O[C@H]1CN(C)C	2.5	-0.7	3.1
CCCNC(=O)[C@@H]1[C@@H](CO)[C@@H]2Cn3c(ccc(-c4ccccc4OC)c3=O)[C@@H]2N1CC	-6.4	-8.2	1.8
COc1ccccc1NC(=O)N(C)C[C@H]1OCc2ccccc2-c2ccccc2C(=O)N([C@@H](C)CO)C[C@H]1C	14.6	21.3	-6.8
CN1C(=O)c2cc(NS(=O)(=O)c3cccc(F)c3)ccc2OC[C@@H]2O[C@H](CC(=O)NCCN3CCCCC3)CC[C@H]21	-0.5	-4.5	4.0

New compounds follow.
Structure	DUX4 txn inh	DUX4 txn inh difference	DUX4 txn inh control
CO[C@H]1CN(C)C(=O)c2ccc(NC(=O)c3nc4ccccc4s3)cc2OC[C@@H](C)N(Cc2cccnc2)C[C@@H]1C	u	x	x
CO[C@H]1CN(C)C(=O)c2cc(NC(=O)c3cc(C)on3)ccc2OC[C@H](C)N(C)C[C@@H]1C	-1.9	1.7	-3.6
CCCNC(=O)[C@@H]1[C@@H](CO)[C@@H]2Cn3c(ccc(-c4cccnc4)c3=O)[C@@H]2N1C(=O)c1ccccc1F	6.8	0.5	6.3
COc1ccc2c3c([nH]c2c1)[C@H](CO)N(Cc1ccc(F)cc1)CC31CN(C(=O)NC(C)C)C1	6.8	-4.1	10.9
CC(C)NC(=O)N1[C@@H](CO)[C@@H]2c3ccccc3NC[C@@H]21	-2.0	-0.1	-1.9
C[C@H]1CN([C@@H](C)CO)C(=O)CCCn2cc(nn2)CO[C@H]1CN(C)C(=O)c1ccncc1	6.1	6.4	-0.3
CO[C@@H]1CN(C)C(=O)c2cc(NC(=O)c3ccno3)ccc2OC[C@H](C)NC[C@H]1C	5.4	4.7	0.7
Cc1ccc(-c2cnc3c(c2)C(=O)N([C@@H](C)CO)C[C@@H](C)[C@H](CN(C)Cc2ccccc2C(=O)O)O3)cc1	0.1	-1.1	1.2
C[C@H]1CN([C@@H](C)CO)C(=O)CCCn2cc(nn2)CO[C@H]1CN(C)C(=O)Cc1ccccc1	5.8	1.9	3.9
C[C@H](NC(=O)[C@@H]1[C@@H](CO)[C@@H]2Cn3c(ccc(-c4cccnc4)c3=O)[C@H]1N2C)c1ccccc1	5.6	0.7	4.9
Cc1ccccc1-c1ccc2c(c1)O[C@H](CN(C)C(=O)Nc1ccc(C(F)(F)F)cc1)[C@H](C)CN([C@@H](C)CO)S2(=O)=O	1.2	-0.3	1.5
C[C@@H]1CN([C@@H](C)CO)C(=O)c2cccc(NC(=O)C3CCCCC3)c2O[C@@H]1CN(C)S(C)(=O)=O	-2.3	-7.6	5.3
COCCNC(=O)C[C@@H]1C[C@H]2c3cc(NC(=O)CN(C)C)ccc3O[C@H]2[C@H](CO)O1	3.6	4.9	-1.3
O=C(N[C@@H]1CC[C@@H](CC(=O)N2CCOCC2)O[C@H]1CO)c1cccc(F)c1	1.7	-3.6	5.3
C[C@H]1CN([C@@H](C)CO)C(=O)c2ccccc2-c2ccccc2CO[C@@H]1CN(C)CC1CC1	1.6	1.1	0.5
CC(C)(O)C#Cc1ccc([C@H]2[C@H](CO)N3CCCCN(S(C)(=O)=O)C[C@@H]23)cc1	17.9	19.9	-2.0
O=C1CN(S(=O)(=O)c2ccccc2)C[C@@H]2[C@@H](c3ccc(C#CCc4ccccc4)cc3)[C@H](CO)N12	u	x	x
C/C=C/c1ccc([C@H]2[C@@H](C#N)N(C(=O)Cc3ccccn3)[C@@H]2CO)cc1	3.5	1.6	1.9
O=C(O)C[C@H]1C=C[C@@H](NC(=O)Nc2cc(F)ccc2F)[C@@H](CO)O1	6.1	2.2	3.9
CN(C)CC(=O)N[C@H]1CC[C@H](CCNC(=O)C2CCC2)O[C@H]1CO	7.6	6.3	1.3
C[C@H](CO)N1C[C@H](C)[C@@H](CN(C)S(=O)(=O)c2ccc(Cl)cc2)Oc2ccc(NC(=O)Nc3cccc4ccccc34)cc2CC1=O	0.5	-4.2	4.7
COc1ccc2c3c(n(C)c2c1)[C@@H](CO)N(CC1CC1)CC31CCN(C(=O)c2ccc(F)cc2)CC1	u	x	x
C[C@@H]1CN([C@@H](C)CO)C(=O)c2cc(Br)cnc2O[C@H]1CN(C)C(=O)Cc1cccnc1	-3.0	0.5	-3.5
O=C(CC1CC1)N1[C@@H]2CN(S(=O)(=O)c3ccc(F)cc3)c3ccccc3[C@@H]2[C@@H]1CO	0.4	-0.4	0.7
O=C(C[C@H]1C=C[C@H](NC(=O)CCN2CCCCC2)[C@@H](CO)O1)Nc1nccs1	-1.2	-6.8	5.6

(list continues)
Order of values: DUX4 txn inh, DUX4 txn inh difference, DUX4 txn inh control
> COc1cccc(NC(=O)N(C)C[C@@H]2Oc3cc(C#Cc4ccncc4)ccc3S(=O)(=O)N([C@H](C)CO)C[C@H]2C)c1
 : -5.5, -3.1, -2.4
> O=C(C[C@@H]1CC[C@H]2[C@@H](COC[C@H](O)CN2Cc2cccc(Cl)c2)O1)N1CCCCC1
 : 3.0, 6.2, -3.2
> O=C(N[C@H]1CC[C@@H](CCn2cc(-c3ccccc3F)nn2)O[C@H]1CO)c1ccc2c(c1)OCO2
 : 0.2, -2.5, 2.7
> CCCC(=O)N1CC2(C1)CN(C(=O)COC)[C@H](CO)c1c2c2ccc(OC)cc2n1C
 : 18.7, 11.2, 7.6
> CC=Cc1ccc2n(c1=O)C[C@H]1[C@H](CO)[C@@H](C(=O)NC3CCC3)N(CC)[C@@H]21 (mixture of isomers)
 : -2.5, -8.3, 5.7
> COC(=O)[C@H]1[C@H](CO)[C@H]2Cn3c(ccc(C4=CCCC4)c3=O)[C@H]2N1C(=O)C1CC1
 : -2.1, 4.0, -6.1
> CCC(=O)N1CC2(C1)[C@H](c1ccccc1)[C@H](CO)N2CC1CCCC1
 : -0.2, -5.9, 5.7
> COc1ccccc1-c1ccc2n(c1=O)C[C@@H]1[C@@H](CO)[C@H](C(=O)NCc3ccccc3Cl)N[C@H]21
 : -0.1, 7.4, -7.5
> CC=Cc1ccc2n(c1=O)C[C@H]1[C@H](CO)[C@@H](C(=O)NCC3CC3)N(Cc3ccccc3)[C@@H]21 (mixture of isomers)
 : -6.6, -3.9, -2.7
> CCCN1[C@@H]2c3ccc(-c4ccncc4)c(=O)n3C[C@H]1[C@H](CO)[C@H]2C(=O)NCC1CC1
 : 8.1, 8.1, 0.0
> CS(=O)(=O)Nc1ccc2c(c1)[C@@H]1C[C@H](CC(=O)NC3CCCC3)O[C@@H](CO)[C@@H]1O2
 : 2.1, -5.1, 7.2
> CCCNC(=O)N1C[C@H](O)COC[C@H]2O[C@@H](CC(=O)NCc3ccc(Cl)c(Cl)c3)CC[C@@H]21
 : 1.6, 6.4, -4.8
> C[C@@H]1CN([C@H](C)CO)C(=O)c2cc(Br)cnc2O[C@@H]1CN(C)C(=O)C1CCCCC1
 : -0.2, -1.6, 1.4
> CCCC#Cc1ccc([C@@H]2[C@@H](CO)N3C(=O)CN(C(=O)c4cccc(F)c4)C[C@H]23)cc1
 : 1.4, 3.1, -1.7
> N#Cc1cccc(-c2ccc(C3[C@H]4CNC[C@@H]3N4S(=O)(=O)c3ccccc3F)cc2)c1 (some centres not stated)
 : 1.0, 0.3, 0.7
> CO[C@H]1CN(C)C(=O)c2cc(NC(=O)c3ccc(F)cc3)ccc2OC[C@H](C)N(C(=O)CC2CC2)C[C@H]1C
 : 3.0, -2.7, 5.7
> CCC(=O)N1[C@H](CO)[C@H](c2ccccc2)[C@H]1CN(C(C)C)S(C)(=O)=O
 : -0.1, -2.6, 2.5
> COCC#Cc1cnc2c(c1)C(=O)N([C@H](C)CO)C[C@H](C)[C@H](CN(C)C(=O)c1ccc3c(c1)OCO3)O2
 : -3.6, -1.2, -2.4
> C/C=C/c1ccc([C@H]2[C@@H](CO)N(CCC)[C@H]2CNC(=O)CN2CCOCC2)cc1
 : -4.5, -3.2, -1.3
> CC(=O)N1CCCCN2[C@H](C1)[C@@H](c1ccc(C#Cc3ccccc3F)cc1)[C@@H]2CO
 : u, x, x
> CCCNC(=O)[C@@H]1[C@@H](CO)[C@@H]2Cn3c(ccc(-c4cccnc4)c3=O)[C@@H]2N1CCC
 : -2.1, -6.9, 4.8
> COc1cccc(CN2CC3(CCN(CC4CCOCC4)CC3)c3c([nH]c4cc(OC)ccc34)[C@@H]2CO)c1
 : -7.8, 1.8, -9.6
> CO[C@@H]1CN(C)C(=O)c2ccc(NC(=O)C3CCC3)cc2OC[C@H](C)NC[C@@H]1C
 : 0.8, -3.9, 4.6
> C[C@H]1CCCCO[C@H](CN(C)C(=O)CCCN(C)C)[C@@H](C)CN([C@@H](C)CO)C(=O)c2cc(N(C)C)ccc2O1
 : -0.3, 2.8, -3.1
> C[C@H](CO)N1C[C@H](C)[C@@H](CN(C)S(C)(=O)=O)Oc2ccc(NC(=O)Cc3ccccc3)cc2C1=O
 : -0.9, -3.8, 2.9
> C[C@H]1CN([C@@H](C)CO)C(=O)CCCn2cc(nn2)CO[C@H]1CN(C)S(=O)(=O)c1ccc(-c2ccccc2)cc1
 : -3.8, -2.6, -1.1
> C[C@@H]1CN([C@@H](C)CO)C(=O)c2cccc(N(C)C)c2O[C@H]1CN(C)Cc1ccncc1
 : -3.5, 0.3, -3.9
> CO[C@H]1CN(C)C(=O)c2ccc(NC(C)=O)cc2OC[C@@H](C)N(Cc2cccnc2)C[C@@H]1C
 : 0.0, -0.8, 0.8
> C[C@@H]1CN([C@H](C)CO)S(=O)(=O)c2ccc(-c3ccncc3)cc2O[C@H]1CN(C)S(C)(=O)=O
 : -4.3, -5.8, 1.6

Screening results (PubChem BioAssay)
